Screening results deposited in PubChem BioAssay by National Center for Advancing Translational Sciences (NCATS).
VDR inh – Inhibitors of the vitamin D receptor (VDR): qHTS. Vitamin D3 receptor (Homo sapiens), P11473. VDR-SRC2-3 peptide fluorescence polarization, 2 h. Potency, µM, inactives show max response, negative = inhibition, most hits filed as inhibitors. hit rate 0.93% among 400,000. AID 504847, 2011; active means well fitted inhibition curve with a large enough effect; inconclusive means small, poorly fitted or top-dose-only effect, or another doubt; inactive means no such curve, though single readings can be large or run the other way; further: series mostly up to about 120 µM
Target sequence (P11473 whole entry, looked up): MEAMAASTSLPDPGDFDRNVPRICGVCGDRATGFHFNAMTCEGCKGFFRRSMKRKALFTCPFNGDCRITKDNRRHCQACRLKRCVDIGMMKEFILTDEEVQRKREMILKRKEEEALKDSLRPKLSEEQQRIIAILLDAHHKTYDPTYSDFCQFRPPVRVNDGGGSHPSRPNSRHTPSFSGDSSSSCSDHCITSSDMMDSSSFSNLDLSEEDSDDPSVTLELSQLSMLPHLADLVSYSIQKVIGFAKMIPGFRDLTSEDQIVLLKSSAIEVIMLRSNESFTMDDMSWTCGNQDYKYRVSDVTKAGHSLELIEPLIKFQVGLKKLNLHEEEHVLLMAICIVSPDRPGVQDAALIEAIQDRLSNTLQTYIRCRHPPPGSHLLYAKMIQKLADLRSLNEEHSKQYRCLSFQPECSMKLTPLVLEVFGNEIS
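The screen uses fluorescence polarization to detect compounds that interfere with recruitment of the SRC2-3 coactivator peptide to VDR; plates are read after 2 h at room temperature.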
Starred values were filed as active, the others as inactive; & = joins results of further samples. On the % scale 0 is the no-effect control and ±100 the full control effect; potency means the concentration at half of the fitted maximal effect. Only part of the results is shown. The share of hits here may be higher or lower than overall.

How did CCOC(=O)c1ccc(S(=O)(=O)N2CCC(C(=O)OCC)CC2)cc1 do in these assays?
VDR inh: -7%

How did Cc1cc(C)c(C#N)c(N2CCOCC2)n1 do in these assays?
VDR inh: -9%

How did COc1ccccc1-c1ccc(=O)n(CC(=O)NCc2ccco2)n1 do in these assays?
VDR inh: -12%

How did O=C(CN1CCN(C(=O)C2CC2)CC1)Nc1cc(C(F)(F)F)cc(C(F)(F)F)c1 do in these assays?
VDR inh: 1%

What do the screens show for `Cn1c(=O)c2c(nc(Br)n2Cc2ccc3ccccc3c2)n(C)c1=O`?
VDR inh: -3%

Results for CCN(CC)C(=O)C1=C(C)NC(=S)NC1c1cn(-c2ccccc2)nc1-c1ccc(Cl)cc1 (centres undefined) ?
VDR inh: -8%

How did NC(=O)[C@@H]1CCCCNc2c(F)cc([N+](=O)[O-])cc2C(=O)N[C@@H](CC(=O)O)C(=O)NCC(=O)N1 do in these assays?
VDR inh: -1%

Results for COc1ccc(C2C3C=CCC(c4cccc(-c5ccc(C)cc5)c4)C3C(=O)N2Cc2ccccc2)cc1Cl (centres undefined) ?
VDR inh: -10%&-16%

Results for CCn1c2ccccc2c2cc(NC(=O)c3ccc(Br)o3)ccc21 ?
VDR inh: 50µM*

How did Cn1c(=O)[nH]c(=O)c2c1nc(SCCCO)n2CCCc1ccccc1 do in these assays?
VDR inh: -3%

How did Cc1cccc(N2C(=O)N3[C@H](c4ccc(Br)cc4)[C@@H]4C(=O)N(C(C)(C)C)C(=O)[C@@H]4[C@]3(C)C2=O)c1 do in these assays?
VDR inh: -10%

What do the screens show for `Cc1ccc(S(=O)(=O)N2CCC(=O)N(CCOCc3cccc(Cl)c3)CC2)cc1`?
VDR inh: -7%

Results for CN(C1CCCCC1)S(=O)(=O)c1ccc2c(c1)c(=O)c(C(=O)N1CCN(c3ccccc3)CC1)cn2C ?
VDR inh: 4%

How did Cc1ccc(-n2ncc3c(Nc4c(C)n(C)n(-c5ccccc5)c4=O)ncnc32)c(C)c1 do in these assays?
VDR inh: 7%

How did CCN(CC)c1nc2c(s1)C(=O)CC(C)(C)C2 do in these assays?
VDR inh: -3%

Results for Cc1ccc(-c2nc3ccccn3c2Nc2ccccc2C)o1 ?
VDR inh: inconclusive

What do the screens show for `COc1c2c(cc3c1C(CC(O)Cc1ccccc1)N(C)CC3)OCO2` (centres undefined)?
VDR inh: -1%

How did O=C(NC1CCCCC1)c1cc(S(=O)(=O)N2CCN(c3ccccc3)CC2)ccc1Cl do in these assays?
VDR inh: 0%

Results for COCCCn1c(=N)c(C(=O)NCc2ccc3c(c2)OCO3)cc2c(=O)n3ccccc3nc21 ?
VDR inh: 7%

Results for COc1cccc(OC)c1C(=O)NCCOc1cc(C)cc(C)c1 ?
VDR inh: -3%

Results for N/C(=N\OC(=O)c1cc(Cl)ccc1Cl)c1ccncc1 ?
VDR inh: -15%

Results for CN1CCN(NC(=O)CN2C(=O)/C(=C/c3c(Cl)cccc3Cl)SC2=S)CC1 ?
VDR inh: 22%

How did CC(C)C(=O)N1CCN(c2ccccc2NC(=S)NC(=O)/C=C/c2ccco2)CC1 do in these assays?
VDR inh: -1%

How did Cc1ccccc1CSc1cn(CC(=O)N2CCCCC2)c2ccccc12 do in these assays?
VDR inh: 8%

How did CN1CCN(C(=S)c2ccc(-c3cccc(Cl)c3Cl)o2)CC1 do in these assays?
VDR inh: -8%

Results for COc1cccc(C2=CC(c3ccc(OC)c(OC)c3OC)n3ncnc3N2)c1 (centres undefined) ?
VDR inh: 17%

What do the screens show for `Cc1cccc(NC(=O)Cc2c(F)cccc2Cl)n1`?
VDR inh: -12%

What do the screens show for `O=C(C[C@@H]1C/C=C\C[C@@H](Cc2ccc(F)cc2)C(=O)OCCNC1=O)N[C@H](CO)Cc1ccccc1`?
VDR inh: -15%

How did CCOC(=O)N1CCN(C(c2ccc(Cl)cc2)c2sc3nc(C)nn3c2O)CC1 (centres undefined) do in these assays?
VDR inh: -23%

Results for COc1cccc(Nc2nc(-c3cccs3)nc3ccccc23)c1 ?
VDR inh: 9%

Results for Cc1cccc(C)c1NC(=O)CN1CCN(C(=O)C2CCC2)CC1 ?
VDR inh: -3%

How did COc1ccc(NC(=O)N(C2CCCCC2)C(C)c2ccco2)c(OC)c1 (centres undefined) do in these assays?
VDR inh: -1%

How did CC1c2ccccc2N(NC(=O)Cc2ccccc2)C1C (centres undefined) do in these assays?
VDR inh: -1%

What do the screens show for `Cc1ccccc1OCC(=O)OC(C)C(=O)NC1CCCC1` (centres undefined)?
VDR inh: -5%

What do the screens show for `CC(=O)N/N=C(\C)CC(=O)Nc1cccc2c1CCCC2`?
VDR inh: 11%

What do the screens show for `O=C(CN1CCN(C(=O)c2ccccc2Cl)CC1)Nc1cccc(S(=O)(=O)N2CCCC2)c1`?
VDR inh: -3%

How did CCNc1nc(NCC)nc(SCCOC(=O)COc2ccc(Cl)cc2Cl)n1 do in these assays?
VDR inh: 7%

What do the screens show for `CCN(CC)S(=O)(=O)c1ccc(C(=O)Nc2nc3ccc(Cl)cc3s2)cc1`?
VDR inh: 6%

How did CCOC(=O)c1nc(C)nc(Sc2n[nH]c(-c3ccc(C(C)(C)C)cc3)n2)c1C do in these assays?
VDR inh: -10%

How did COc1ccc(NC(=O)c2ccccc2-c2ccccc2C(=O)O)cc1 do in these assays?
VDR inh: 5%

How did Clc1ccccc1CN1CCN(/N=C/C=C/c2ccco2)CC1 do in these assays?
VDR inh: -2%

Results for N#Cc1ccccc1Cn1c(=O)n(Cc2ccc(C(=O)NCc3ccco3)cc2)c(=O)c2ccccc21 ?
VDR inh: 17%

Results for CC(OC(=O)C1CC(=O)N(Cc2ccccc2)C1)C(=O)Nc1ccccc1[N+](=O)[O-] (centres undefined) ?
VDR inh: -12%

What do the screens show for `O=[N+]([O-])c1ccc(N(CCO)Cc2ccccc2)c([N+](=O)[O-])c1`?
VDR inh: -18%

How did CCOC(=O)C1(Cc2ccccc2C(F)(F)F)CCN(C2CCC2)CC1 do in these assays?
VDR inh: -5%

Results for COC(=O)[C@]1(Cc2ccccc2)N[C@H](CN(C)C(=O)Nc2ccccc2)[C@@H]2C(=O)N(Cc3ccccc3)C(=O)[C@@H]21 ?
VDR inh: 14%

How did Cc1cc(OCC(=O)Nc2ccc(CCO)cc2)c2c(C)c(C)c(=O)oc2c1 do in these assays?
VDR inh: -5%

Results for CC1CCCCN1C(=O)COC(=O)c1ccc(S(C)(=O)=O)c([N+](=O)[O-])c1 (centres undefined) ?
VDR inh: inconclusive

What do the screens show for `Cc1ccc(C(=O)Nc2nnc(CC(=O)N/N=C/c3ccncc3)s2)cc1`?
VDR inh: -15%

How did Nc1nc(Nc2cccc(C(F)(F)F)c2)nc(C(F)(F)F)n1 do in these assays?
VDR inh: -2%

Results for CCc1cccc(N(C(=O)c2csnn2)C(C(=O)NC2CCCCC2)c2ccncc2)c1 (centres undefined) ?
VDR inh: 4%

How did COc1ccc(NC(=O)CSc2nnc(C3CC3)n2-c2ccccc2)cc1 do in these assays?
VDR inh: 9%

How did O=C(O)c1ccc(S(=O)(=O)N2CCSCC2)cc1 do in these assays?
VDR inh: 23%

Results for c1ccc(-n2nnnc2Cc2nnnn2-c2ccccc2)cc1 ?
VDR inh: -6%

What do the screens show for `CC(=O)c1ccc2c(c1)CC1(C2)Cc2cc3c(cc2C1)C(=O)CC3` (centres undefined)?
VDR inh: -1%

How did Cc1c(Nc2nc(C(F)(F)F)nc3ccccc23)c(=O)n(-c2ccccc2)n1C do in these assays?
VDR inh: -13%

How did COCCN1C(=O)N[C@@H](c2ccccc2)[C@H](C(C)=O)[C@H]1C do in these assays?
VDR inh: -13%

Results for Cc1ccc(N2C(=O)CSC23C(=O)N(CC(=O)Nc2ccccc2F)c2ccccc23)cc1C (centres undefined) ?
VDR inh: 10%

Results for COc1ccc(-c2nnc(S/C(=C/c3ccc(Cl)cc3)C(=O)O)o2)cc1 ?
VDR inh: -19%

How did O=C(COc1ccc2oc3c(c2c1)CCCC3)Nc1ccccn1 do in these assays?
VDR inh: 12%

Results for Fc1ccc(NCc2cn3ccccc3n2)cc1 ?
VDR inh: -16%

How did O=C1OC(c2ccc(F)cc2)=N/C1=C\c1ccc(Br)o1 do in these assays?
VDR inh: -1%

Results for CC(C)CN(C(=O)CSc1nncn1C)C1CCS(=O)(=O)C1 (centres undefined) ?
VDR inh: -7%

What do the screens show for `COCC(=O)Nc1nnc(-c2cccs2)s1`?
VDR inh: 9%

What do the screens show for `COC(=O)C(Cc1ccc(O)cc1)NC(=O)NC12CC3CC(CC(C3)C1)C2` (centres undefined)?
VDR inh: -1%

How did O=C(NCc1ccccn1)C1CCC(=O)N1C1CCCC1 (centres undefined) do in these assays?
VDR inh: -6%

How did CC(C)(C)C(=O)Nc1nc(C2CCCN2S(=O)(=O)c2ccc(Cl)cc2)cs1 (centres undefined) do in these assays?
VDR inh: 5%

What do the screens show for `COc1ccc(CNC(=O)c2ccc(NS(=O)(=O)c3c(C)noc3C)cc2)cc1`?
VDR inh: 2%

What do the screens show for `Cc1cc(C)cc(Nc2c3c(nc4ncnn24)CCC3)c1`?
VDR inh: -5%

What do the screens show for `OCCN1CCN(c2nc3ccccc3nc2-c2ccccc2)CC1`?
VDR inh: 8%

What do the screens show for `Cn1c2c(sc1=O)CCC2`?
VDR inh: -11%

What do the screens show for `CC1C(=O)Nc2ccc(S(=O)(=O)N3CCN(c4ccccc4F)CC3)cc2NC1=O` (centres undefined)?
VDR inh: -12%

How did CC(NC(=O)c1cccc(S(=O)(=O)N2CCN(Cc3ccccc3)CC2)c1)c1ccccc1Cl (centres undefined) do in these assays?
VDR inh: -95%

Results for CCOC(=O)N1CCC(NS(=O)(=O)c2ccc3c(c2)OCC(=O)N3)CC1 ?
VDR inh: 2%

What do the screens show for `Cc1c(NS(=O)(=O)c2cccs2)c(=O)n(-c2ccccc2)n1C`?
VDR inh: 8%

What do the screens show for `CC(OC(=O)c1ccc(C(C)(C)C)cc1)C(=O)NC1CCCCC1C` (centres undefined)?
VDR inh: -3%

What do the screens show for `Cn1cc(-c2ccccc2C(N)=O)c(=O)c2ccccc21`?
VDR inh: -1%

How did O=S(=O)(Nc1ccc(Cl)cc1)c1ccc2c(c1)CCO2 do in these assays?
VDR inh: -15%

What do the screens show for `Cc1nc(CSc2nnc3scc(-c4ccccc4)n23)cs1`?
VDR inh: -16%

How did CCOC(=O)c1cc(C#N)c(Nc2ccc(C)cc2)nc1C(F)(F)F do in these assays?
VDR inh: 0%

How did COc1ccc(C2NC(=O)C(C#N)=C(S)N2c2ccccc2)cc1OC (centres undefined) do in these assays?
VDR inh: 45µM*

How did COc1ccc(OCC(=O)Nc2cccc(-c3nc4ccccc4s3)c2C)cc1 do in these assays?
VDR inh: 4%

Results for CCOC(=O)C1C(=O)CC(C)(O)C(C(=O)OCC)C1c1ccc(SC)cc1 (centres undefined) ?
VDR inh: 6%

Results for Cc1cc(C)c(OCCCNCc2ccccc2)c(Br)c1 ?
VDR inh: 2%

How did CN(Cc1ccccc1F)C(=O)CN1C(=O)NC2(CCc3ccccc32)C1=O (centres undefined) do in these assays?
VDR inh: 8%

What do the screens show for `CC(=O)c1ccc(NC(=O)COC(=O)c2ccccc2Sc2ccccc2C#N)cc1`?
VDR inh: 13%

How did COc1cc2c(cc1OC)CN(C(C)C(=O)Nc1cccc(S(=O)(=O)N3CCOCC3)c1)CC2 (centres undefined) do in these assays?
VDR inh: -10%

Results for Cc1cccc2c(C(=O)N3CCN(c4ccccc4)CC3)cc(-c3ccncc3)nc12 ?
VDR inh: 3%

Results for CC1CCN(C(=O)COC(=O)c2n[nH]c(=O)c3ccccc23)CC1 ?
VDR inh: -5%

Results for CC(=O)Nc1nc2c(C)cc(NC(=O)C3CCCCC3)cc2s1 ?
VDR inh: 11%

A section from the list above, for reference:
Results for CC1CCN(C(=O)COC(=O)c2n[nH]c(=O)c3ccccc23)CC1 ?
VDR inh: -5%

Results for CC(=O)Nc1nc2c(C)cc(NC(=O)C3CCCCC3)cc2s1 ?
VDR inh: 11%

Remaining list, next part:
What do the screens show for `Cc1csc(NC(=O)c2c(-c3c(F)cccc3Cl)noc2C)n1`?
VDR inh: 5%

Results for Cc1cc(=O)oc(C)c1C(=O)NCCc1ccccc1 ?
VDR inh: 16%

Results for CCCCN(CCCC)CCNC(=O)c1cn(CC)c2ccc(S(=O)(=O)N3CCc4ccccc4C3)cc2c1=O ?
VDR inh: 3%&19%

How did Cn1c(=O)c2c(nc(N3CCOCC3)n2CC(=O)C23CC4CC(CC(C4)C2)C3)n(C)c1=O do in these assays?
VDR inh: -9%

Among those listed so far, 10 contain a furan ring, fused or not:
How did COc1ccccc1-c1ccc(=O)n(CC(=O)NCc2ccco2)n1 do in these assays?
VDR inh: -12%

Results for CCn1c2ccccc2c2cc(NC(=O)c3ccc(Br)o3)ccc21 ?
VDR inh: 50µM*

Results for Cc1ccc(-c2nc3ccccn3c2Nc2ccccc2C)o1 ?
VDR inh: inconclusive

How did CC(C)C(=O)N1CCN(c2ccccc2NC(=S)NC(=O)/C=C/c2ccco2)CC1 do in these assays?
VDR inh: -1%

How did CN1CCN(C(=S)c2ccc(-c3cccc(Cl)c3Cl)o2)CC1 do in these assays?
VDR inh: -8%

How did COc1ccc(NC(=O)N(C2CCCCC2)C(C)c2ccco2)c(OC)c1 (centres undefined) do in these assays?
VDR inh: -1%

How did Clc1ccccc1CN1CCN(/N=C/C=C/c2ccco2)CC1 do in these assays?
VDR inh: -2%

Results for N#Cc1ccccc1Cn1c(=O)n(Cc2ccc(C(=O)NCc3ccco3)cc2)c(=O)c2ccccc21 ?
VDR inh: 17%

How did O=C(COc1ccc2oc3c(c2c1)CCCC3)Nc1ccccn1 do in these assays?
VDR inh: 12%

How did O=C1OC(c2ccc(F)cc2)=N/C1=C\c1ccc(Br)o1 do in these assays?
VDR inh: -1%
